Bioassay records: PubChem BioAssay, several laboratories
Mtb hypoxia rep: PubChem AID 1159583 | fluorescence inhibition, % (test concentration not listed) | hit rate 0.1% among 300,000 | M. tuberculosis hypoxia-regulated fluorescent reporter, fluorescence;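 active = 35 to 45% if threefold the growth effect, above 45% if 1.5-fold the growth effect; inactive = the rest, general growth blockers included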;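 also: wells of about 50 µL received 100 nL stock; 0% = vehicle wells and 100% = reference inhibitor wells; whole bacteria with a GFP reporter of the hypoxia response; strong numbers were not always called active; many hits fall short of the cut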
BJeLR viability: MLPCN primary cell-based screen for lethality selective to Ras in HRASV12 cells | BJeLR (HRASV12) viability, CellTiter-Glo ATP luminescence, 48 h; reference of the scale not given here | inhibition, % (test concentration not listed) | hit rate 0.17% among 300,000;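 active = replicate mean above 50%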;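 also: 50 nL library stock added to about 25 µL; numbers are from one replicate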
Autofluor counter: flagged as autofluorescent in microsphere protease counterscreen; AID 624483; hit rate 3.1% among 360,000; fluorescence intensity (test concentration not listed); compound autofluorescence counterscreen, microsphere flow cytometry; stronger effect = higher value;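 active = at least 3 SD above the mean of all compounds, about 16000 in these data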;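 also: 100 nL of 1 mM stock went into each well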
ugtP null kill: growth inhibition of ugtP-null S. aureus, primary screen, RN4220 ugtP deletion, OD600. AID 1259309, 2017. hit rate 0.54% among 330,000. 16 h; some inactives read as strong as hits. growth inhibition, % (no concentration beside the values);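 active = z-score under -3 and OD600 up to 0.15 on both plates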;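 also: plate controls were untreated wells for no effect and antibiotic for full effect; wells of about 80 µL received 100 nL stock; the first replicate is given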
RN4220 kill: growth inhibition of S. aureus RN4220, primary screen, OD600. hit rate 0.33% among 330,000. inhibition, % (concentration not given with the values). 16 h;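 active = z-score of -3 or lower and OD600 up to 0.18 on both plates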;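 also: plate controls were untreated cells for no effect and reference antibiotic for full effect; stock transfer was 100 nL into about 80 µL; one replicate is shown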
PrP UTR inh: inhibition of PrP 5' UTR reporter expression; cell-based PrP 5' UTR mRNA reporter, plate reader; inhibition, % (no concentration beside the values); hit rate 0.35% among 340,000;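 active = every replicate at 50% or more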;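 also: 0 = median of the neutral control wells; tested in H4 reporter cells; numbers are from one replicate; inactives centre near -14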
Mtb hypoxia rep growth: further read-out of Mtb hypoxia rep, marked with its call; growth inhibition, %; measured here: M. tuberculosis growth (absorbance);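 0% = vehicle and 100% = reference antibiotic; read after six days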
Numbers without * were called inactive; · = not tested or not shown. Rows are unselected; overall some 3.9% were active at least once.

SMILES	Mtb hypoxia rep	Mtb hypoxia rep growth	BJeLR viability	Autofluor counter	ugtP null kill	RN4220 kill	PrP UTR inh
CN1CCN(CC(=O)O)CC1	5.2	4.6	·	11258	4.9	4.3	-21.9
CC1CC(C)(C)N(C(=O)CSc2ccc(-c3ccc(F)cc3)nn2)c2ccccc21 (stereo not drawn)	3.0	7.4	3.0	10749	63.1	1.1	-24.2
CN1CCN(/C(=N\S(=O)(=O)c2ccc(F)cc2)c2ccccc2)CC1	·	·	-7.7	3746	·	·	-4.3
CCO[C@H]1OC(C(=O)NCc2nc3ccccc3[nH]2)=C[C@@H](C2CC2)[C@@H]1CCCO	3.3	6.1	-1.1	2843	-9.5	-9.9	-7.3
Cc1ccc(CNC(=O)CCS(=O)(=O)c2ccc(Br)cc2)cc1	7.1	9.6	-0.2	2348	4.6	5.5	-8.0
N#Cc1cccnc1Nc1ccc(Cl)cc1	-8.1	-13.9	5.5	2045	-0.9	-0.7	15.1
COc1cc(C2(c3ccc(O)c(OC)c3)C(=O)Nc3c(C)cc(Br)cc32)ccc1O	9.2	-8.4	-5.3	4327	-30.9	0.2	-10.3
COc1ccccc1N(Cc1cc2ccc(C)cc2[nH]c1=O)C(C)=O	20.1	3.7	2.3	4218	2.9	8.8	-12.5
COc1ccc(C(C(=O)OC(C)CN(C)C)c2ccccc2)cc1 (stereo not drawn)	·	·	3.8	2612	1.4	2.9	-11.8
Cc1ccc(/C=C2/NC(=O)[C@H](C)NC2=O)cc1	-4.9	-2.0	-4.9	4084	4.7	1.2	-13.8
S=c1[nH]nc(-c2cccs2)n1/N=C/c1c(Cl)cccc1Cl	·	·	-18.3	4687	·	·	-9.1
O=C(Nc1ccc(N2CCN(C(=O)c3cccs3)CC2)cc1)c1ccccc1Cl	3.6	15.6	-0.6	3132	-1.0	-2.2	-11.1
O=C(c1cccnc1)N(Cc1ccccc1)C1(C(=O)Nc2ccccc2)CCCCC1	-4.1	4.5	-1.7	2485	9.4	3.8	-22.4
Cc1ccc(-c2nnc(SCC(=O)NN=Cc3ccccc3C(=O)O)n2-c2ccccc2)cc1	10.9	0.2	·	·	-1.8	8.3	·
CCCCN(C(=O)C1CCN(C(=O)c2ccccc2C)CC1)c1c(N)n(CC(C)C)c(=O)[nH]c1=O	-3.7	-5.5	·	2910	-5.7	-2.3	1.3
COc1ccc2nc(C)cc(Sc3nc4ccccc4s3)c2c1	15.7	16.1	1.9	3794	6.6	5.0	12.2
CCc1ccc(-c2ccc3nnc(SC)n3n2)cc1	5.2	2.0	0.1	5620	-0.7	5.1	-24.7
COc1cc(OC)c(OC)cc1CNc1nnnn1C	3.0	-1.5	-5.4	3132	9.6	1.2	-14.0
CCCCC(=O)N1CCN(c2nc(-c3ccc(F)cc3)cs2)CC1	0.8	13.7	-1.7	3551	9.3	-1.5	-6.2
CC(=O)Nc1nc(NC(=O)C(Cl)(Cl)Cl)n(-c2ccccc2)n1	13.1	-3.5	-4.0	4441	-0.5	6.4	-6.8
O=C(Cn1cc([N+](=O)[O-])cn1)Nc1ccn(Cc2c(F)c(F)c(F)c(F)c2F)n1	-1.9	2.8	-0.4	22598*	-9.4	1.5	7.9
COc1ccc(C(=O)CSc2cc(C)nc(SCC(=O)c3ccc(C)cc3)n2)cc1	5.4	8.9	2.2	2914	-8.9	13.8	-0.7
Cc1ccc(-c2cc(C(=O)Nc3cc(C)ccc3O)no2)cc1	-6.9	0.0	-2.6	3884	-2.6	3.5	-64.4
Cn1cc(CCNC(=O)c2ccc3nc(Cc4ccccc4F)oc3c2)cn1	11.9	7.2	5.1	4916	4.2	2.7	-118.2
CCN1C(=O)c2cccc3c(Cl)ccc(c23)C1=O	-0.7	1.1	2.8	4623	3.7	4.0	-25.4
CCN(C(=O)CSc1nc2cc(C(F)(F)F)ccc2n1Cc1ccccc1)C1CCS(=O)(=O)C1 (stereo not drawn)	15.1	10.6	0.5	2563	0.8	1.8	-12.2
O=C(COC(=O)C1CC(=O)N(c2nc(-c3ccccc3)cs2)C1)c1ccccc1 (stereo not drawn)	10.9	14.5	5.2	4268	12.0	4.6	-18.6
Cc1nc2cc([N+](=O)[O-])ccc2c(=O)n1-c1ccc(Br)cc1	11.9	8.0	-11.3	3634	5.6	-0.6	-7.4
Cc1ccnc(NC(=O)c2cc3cc(F)ccc3s2)c1	-0.3	7.6	-8.8	5427	3.0	-0.7	-152.6
COc1ccc(S(=O)(=O)N2CCCC(C(=O)NCc3ccc(F)cc3)C2)cc1 (stereo not drawn)	1.8	11.1	6.3	5979	-4.6	3.2	-30.6

Arranged by SMILES length (ascending): 4 of the compounds above.
SMILES	Mtb hypoxia rep	Mtb hypoxia rep growth	BJeLR viability	Autofluor counter	ugtP null kill	RN4220 kill	PrP UTR inh
CCc1ccc(-c2ccc3nnc(SC)n3n2)cc1	5.2	2.0	0.1	5620	-0.7	5.1	-24.7
Cc1ccnc(NC(=O)c2cc3cc(F)ccc3s2)c1	-0.3	7.6	-8.8	5427	3.0	-0.7	-152.6
CCCCC(=O)N1CCN(c2nc(-c3ccc(F)cc3)cs2)CC1	0.8	13.7	-1.7	3551	9.3	-1.5	-6.2
Cn1cc(CCNC(=O)c2ccc3nc(Cc4ccccc4F)oc3c2)cn1	11.9	7.2	5.1	4916	4.2	2.7	-118.2

The listing continues:
SMILES	Mtb hypoxia rep	Mtb hypoxia rep growth	BJeLR viability	Autofluor counter	ugtP null kill	RN4220 kill	PrP UTR inh
O=C(c1ccc(OC2CCN(CCc3ccccc3)CC2)cc1)N1CCCC(CCCO)C1 (stereo not drawn)	-1.7	-0.4	-0.7	6185	7.4	-1.8	-9.7
O=C(c1cnn2c(C(F)F)cc(C3CC3)nc12)N1CCCC1	14.0	-4.4	-3.4	14955	12.5	6.0	4.2
CCC1CCCC1=NNC(=O)c1ccccc1Cl (stereo not drawn)	0.2	0.0	·	·	0.3	2.6	·
CSc1nc2sc3c(c2c(=S)[nH]1)CC(C)(C)OC3	·	·	-5.3	4714	·	·	-6.7
COc1cccc(Nc2ccc(N3CCCCC3)cc2)c1OC	·	·	·	3685	5.1	-0.5	-23.1
COc1ccc2c(C)c(C(=O)O)oc2c1	-3.1	5.1	-17.8	3912	-3.1	0.2	-22.9
O=C1C=C(NC2CCCC2)CC(c2ccccc2)C1 (stereo not drawn)	-7.2	-4.4	5.0	3525	1.4	2.3	-14.8
O=C(CCCN1C(=O)/C(=C/c2cccs2)SC1=S)Nc1ccccn1	10.3	14.8	1.6	4454	-17.3	7.8	-10.7
Cc1ccc(NC(=O)COC(=O)C2COc3ccccc3O2)cc1 (stereo not drawn)	-1.7	0.1	·	3616	1.5	3.9	1.7
CCOC(=O)C1(P(=O)(c2ccccc2)c2ccccc2)CCC1	3.1	9.9	-2.8	3116	-1.5	3.8	2.9
COc1ccc2c(=O)c(Oc3ccc(C(=O)O)cc3)c(C(F)(F)F)oc2c1	2.9	11.2	4.3	4568	9.4	3.9	-62.8
O=C([C@@H]1CC=C[C@@H]2CCN(C3CCCCC3)C(=O)[C@@H]21)N1CCN(c2ccccc2)CC1	·	·	5.5	3523	·	·	-12.8
N#Cc1ccc(N2C(=O)[C@@H]3C(C(=O)c4ccc5ccccc5n4)=NN[C@@H]3C2=O)cc1	·	·	0.2	2324	·	·	-26.8
Cc1cccc(N(C(=O)Nc2ccccc2)C2=NCC(C)S2)c1 (stereo not drawn)	·	·	-2.9	6603	11.2	8.9	-12.4
O=C(c1ccccc1)N1CCN(C2C3CC4CC(C3)CC2C4)CC1 (stereo not drawn)	9.0	16.4	-2.7	5151	12.4	8.4	-7.3

Filtered by structure, those above containing a nitro group on carbon (2)
SMILES	Mtb hypoxia rep	Mtb hypoxia rep growth	BJeLR viability	Autofluor counter	ugtP null kill	RN4220 kill	PrP UTR inh
O=C(Cn1cc([N+](=O)[O-])cn1)Nc1ccn(Cc2c(F)c(F)c(F)c(F)c2F)n1	-1.9	2.8	-0.4	22598*	-9.4	1.5	7.9
Cc1nc2cc([N+](=O)[O-])ccc2c(=O)n1-c1ccc(Br)cc1	11.9	8.0	-11.3	3634	5.6	-0.6	-7.4

(listing goes on)
SMILES	Mtb hypoxia rep	Mtb hypoxia rep growth	BJeLR viability	Autofluor counter	ugtP null kill	RN4220 kill	PrP UTR inh
Cc1c(Cl)cccc1NC(=S)NN=Cc1ccccc1Cl	-8.2	7.0	·	·	22.4	-6.2	·
COc1ccccc1NC(=O)N1CCC(NC(=O)C(Cc2ccccc2F)NC(C)=O)CC1 (stereo not drawn)	·	·	-0.2	4216	·	·	-8.3
CCN(CC)S(=O)(=O)c1cccc(-c2n[nH]c(=S)n2/N=C/c2ccc(C(=O)OC)cc2)c1	·	·	2.0	2280	·	·	-6.1
COc1ccccc1-c1coc2c(CN3CCOCC3)c(O)ccc2c1=O	-15.1	-10.4	3.9	4281	3.1	0.3	-18.0
CCC(C)[C@H](NC(=O)NC1CCN(Cc2ccccc2)CC1)C(=O)OC (stereo partly drawn)	1.9	8.6	-4.8	22325*	2.7	1.2	-4.5
O=C(Cn1nc(-c2ccccc2)c2ccccc2c1=O)Nc1cccc(O)c1	1.7	3.7	3.9	4242	13.4	36.6	-29.5
CC(C)(C)Nc1c2ccccc2nc2ccccc12	1.7	4.2	7.3	3712	10.3	1.1	0.5
CCOc1ccc(N(CC(=O)NCc2ccccc2)S(=O)(=O)c2ccc(C)cc2)cc1	5.3	-1.3	-1.9	3791	10.8	1.1	-14.9
COc1ccc(OCCCC(=O)Nc2ccc3c(c2)OCO3)cc1	6.1	5.0	5.5	16175*	3.5	2.5	1.5
Cc1cc(NC(=O)/C=C/c2cccc(F)c2)n(-c2nc3ccccc3[nH]2)n1	-1.7	-1.2	-6.1	2504	-18.8	-7.5	-10.6
Cc1cc(CNC(=O)C2CCC(=O)N(CCc3cccc(F)c3)C2)on1 (stereo not drawn)	-1.3	-2.7	4.4	6056	3.0	3.9	-6.3
Cc1cccc(S(=O)(=O)Nc2cc(Cl)ccc2N2CCOCC2)c1	19.5	5.2	·	3777	3.3	10.2	-23.6
CN(CC(=O)Nc1ccc(F)cc1)C(=O)C1CCN(S(=O)(=O)c2ccc3c(c2)OCCO3)CC1	3.6	8.8	-4.2	5806	5.7	1.3	-3.7
CN=c1scc(-c2cc(OC)ccc2OC)n1/N=C/c1c(C)[nH]c2ccccc12	·	·	-5.9	2232	·	·	-14.4
O=C1CNC(c2ccccc2Cl)c2cc(Br)ccc2N1 (stereo not drawn)	4.3	3.2	2.2	4392	5.7	4.9	-55.0
